CtBP-E1A blk – blocks the CtBP interaction with E1A; AlphaScreen GST-E1A/His-CtBP binding, 1536-well; hits give low values; control for the full effect not named in the record; activity change, % (concentration not given with the values); actives 0.49% (n = 340,000); AID 651724; in the data active means activity change below about -65%; inconclusive means about -30% to -65%; inactive means above about -30%; further: on the % scale 0 is the no-effect control and ±100 the full control effect
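AlphaScreen with 125 nM GST-E1A and 125 nM His-CtBP (5X stocks) in Tris pH 8.0, 300 mM NaCl, BSA, Tween 20, TCEP. Compounds preincubated 2 h at 37 deg C, then glutathione donor/nickel acceptor beads added for 1 h at 37 deg C in dark.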
Six1-Eya2 inh – inhibitors of human Six1/Eya2 interaction; AlphaScreen GST-Six1/His-Eya2 binding, biochemical; hits give low values; control for the full effect not named in the record; Q15475+O00167; activity change, % (test concentration not listed); actives 0.56% (n = 360,000); in the data active = activity change below about -65%; inconclusive = about -30% to -65%; inactive = above about -30%; further: on the % scale 0 is the no-effect control and ±100 the full control effect; compound concentration not given in the record
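Six1/Eya2 binding was read as AlphaScreen signal after compounds were pinned into GST-Six1 plus His-tagged Eya2 (5X stock 250/500 nM) in pH 8.0 Tris/NaCl/TCEP buffer, beads added, then incubated 1 h, 37 C, dark.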
gsp agonist – activates gsp, the McCune-Albright syndrome mutation; gsp mutant cells, cAMP HTRF, 30 min; control for the full effect not named in the record; Potency, µM (titrated, usually from 76.9 µM), for inactives: at the highest dose activation (cAMP increase), usual class: activators; actives 0.13% (n = 340,000); AID 624287; active = well fitted activation curve with a large enough effect; inconclusive = small, poorly fitted or top-dose-only effect, or another doubt; inactive = no such curve, though single readings can be large or run the other way; cell line not stated here;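 further: phosphodiesterase inhibitor Ro 20-1724 added with compounds to block cAMP breakdown; potency means the concentration at half of the fitted maximal effect; nearly all actives have a fitted effect of over 60% in size; about a fifth of the inactives were tested at one dose only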
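Cells stably selected in G418 were plated at 2000/well, grown 16-24 hr, then given compounds in DMSO with the PDE inhibitor […] (300 uM solution added) for 30 min at 37C; cAMP was read by HTRF.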
gsp antagonist – gsp mutant antagonism; Potency, µM (doses to about 76.9 µM), inactives show at the top dose activity change, negative = inhibition, actives largely listed as inhibitors; AID 624288; gsp-mutant cells, cAMP HTRF, 30 min; control for the full effect not named in the record; actives 0.4% (n = 340,000); active = falling curve of any shape with a large fitted effect; inconclusive = falling curve, mostly with a smaller effect; inactive = flat or rising curve; cell line not stated here;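 further: intracellular cAMP measured with PDE inhibitor Ro 20-1724 present during compound exposure; potency means the concentration at half of the fitted maximal effect; on the % scale 0 is the no-effect control and ±100 the full control effect; nearly all actives have a fitted effect of over 65% in size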
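HTRF cAMP read-out (cAMP-d2 plus anti-cAMP antibody-K in lysis buffer, 30 min RT). Before lysis, cells are exposed to compounds with […] for 30 min at 37C in DPBS containing Ca/Mg, BSA and Tween 20.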
D2 potentiator – human D2 receptor positive allosteric modulation | P14416 | AID 624464 | actives 0.23% (n = 360,000) | potentiation, % (no concentration beside the values) | DiscoveRx D2 beta-arrestin cells, luminescence, 90 min; 100% = 57 uM dopamine signal; active = potentiation of 50% or more; inconclusive = 30% to 50%; inactive = 30% or less;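 further: compound concentration not given in the record; tested on top of an EC20 dose of dopamine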
Target sequence (P14416 whole entry, looked up): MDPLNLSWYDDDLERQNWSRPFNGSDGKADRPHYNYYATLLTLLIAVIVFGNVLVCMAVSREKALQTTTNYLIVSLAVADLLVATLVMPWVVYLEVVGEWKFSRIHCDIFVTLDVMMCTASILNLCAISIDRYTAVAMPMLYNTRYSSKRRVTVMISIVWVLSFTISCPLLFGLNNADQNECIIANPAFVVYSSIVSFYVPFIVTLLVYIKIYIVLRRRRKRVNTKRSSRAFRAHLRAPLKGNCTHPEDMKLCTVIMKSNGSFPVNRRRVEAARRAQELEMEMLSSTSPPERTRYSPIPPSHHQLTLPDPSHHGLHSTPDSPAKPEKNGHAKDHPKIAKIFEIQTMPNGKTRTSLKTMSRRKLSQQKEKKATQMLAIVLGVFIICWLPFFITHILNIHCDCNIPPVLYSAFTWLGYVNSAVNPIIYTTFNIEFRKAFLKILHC
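PathHunter D2 cells, attached overnight at 37 deg C, received compound in DMSO plus dopamine at EC20 (50 nM final) for 90 min at 37 deg C. Beta-arrestin recruitment was read as luminescence after 1 h with detection reagent at ambient temperature.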
D2 ag – human D2 receptor agonism in beta-arrestin assay; AID 624465; P14416; activation, % (test concentration not listed); actives 0.084% (n = 360,000); DiscoveRx PathHunter D2 beta-arrestin, luminescence, 90 min; 100% = 57 uM dopamine signal; in the data active = activation above about 40%; inconclusive = about 15% to 40%; inactive = below about 15%; further: compound concentration not given in the record; the text of the record calls up to 30% inactive
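Agonist mode: compounds alone added to overnight-plated D2 PathHunter cells for 90 min at 37 C, with 57 uM final dopamine (EC100) defining full response. Beta-arrestin recruitment detected by chemiluminescent reagent, read after 1 h at ambient temperature.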
Active calls of the source: *; u = inconclusive; x = no result given; & = joins results of further samples; [ ] = another dose, or the depositor's remark. An unsorted share of the library. About 1.4% of those tested had a hit in this group.

Order of results – CtBP-E1A blk	Six1-Eya2 inh	gsp agonist	gsp antagonist	D2 potentiator	D2 ag
- Cc1ccc(SCc2nc3ncccn3c2Br)cc1
    4.4	-3.1	17.9%	3.1%	-1.1	-4.3
- CC(C)(C(N)=O)N1CCN(c2ncc(C(F)(F)F)cc2Cl)CC1
    6.7	-0.4	23.0%	-7.5%	3.9	-2.6
- COc1cccc2cc(CC(=O)c3ccc(C)c(C)c3)c(=O)oc12
    x	-6.4	-1.8%	-14.5%	-0.7	3.4
- Cc1ccc(-c2ccc(C(=O)NCc3ccc(Cl)cc3)o2)c2ccccc12
    -0.3	-2.8	x	-3.4%	-2.5	-2.4
- COc1cc(C(O)c2nc3ccccc3n2C)cc(OC)c1OC (configuration not stated)
    -1.0	-1.0	-40.4%	-0.9%	-0.7	-2.4
- COc1ccc(C(=O)NC2(C(F)(F)F)NC(=O)N(CCCc3ccccc3)C2=O)c(OC)c1OC (configuration not stated)
    0.1	-6.1	13.1%[15.4 µM]	-9.0%	-10.8	-4.1
- COc1ccc(OCc2ccc(C(=O)NN)cc2)cc1
    -3.3	-1.6	19.2%	-1.6%	1.4	0.7
- Cc1sc2nc(N)sc2c1C
    6.2	-6.6	6.9%	2.3%	-12.1	-2.6
- Cc1nc2c(-c3ccccc3)c(C)nn2c(C)c1CCC(=O)NC(C)CCc1ccco1 (configuration not stated)
    2.0	-11.3	-15.0%	-6.8%	7.8	0.7
- COc1ccc(NC(=O)Cn2nnc(C(=O)Nc3ccc(F)c(Cl)c3)c2N)cc1
    -20.3	8.6	30.0%	6.0%	-8.2	9.7
- Cc1ccc(NC(=O)CC(NC(=O)c2ccccc2Cl)c2ccccc2)nc1 (configuration not stated)
    1.4	0.0	-0.2%	-25.9%	0.0	7.6
- COc1cc(/C=N/n2cnc3c(sc4nc(C)cc(C)c43)c2=O)ccc1O
    -26.4	9.5	4.0%[15.4 µM]	16.4%	-3.9	-1.4
- Cc1cc(Br)ccc1OCCN1CCCC1
    x	7.5	13.2%	-3.4%	-66.3	3.0
- COC(=O)c1c(NC(=O)CCC(=O)O)sc(Cc2ccccc2)c1C
    7.2	-1.2	u	u	-7.4	-3.4
- CCn1ccnc1[C@@H]1C[C@H]2CN(Cc3cccc(Cl)c3)C(=O)[C@]23CCCN13
    -0.6	-2.1	-4.1%[15.4 µM]	0.8%	-3.7	5.2
- Cc1cc(C(=O)OCC(=O)Nc2ncc(C(F)(F)F)cc2Cl)c(C)o1
    0.7	-0.9	1.8%	4.2%	-11.0	1.1
- COC(=O)[C@]12C(=O)NC[C@H](CN1c1ccc(C(F)(F)F)cc1)N2C
    x	-7.7	7.3%	14.7%	-17.3	-0.9
- Cc1cccn2c(=O)nc(SCC(=O)N3CCCC3)nc12
    -1.3	7.7	30.0%[15.4 µM]	1.7%	-2.6	4.5
- CCOC(=O)C1(O)CC(C)=NN1C(=O)c1cccc(Br)c1 (configuration not stated)
    9.6	9.2	-12.5%[15.4 µM]	x	-29.1	2.7
- Cc1cc(C)n(S(=O)(=O)c2cccc([N+](=O)[O-])c2)n1
    -2.2	-9.8	-0.1%[15.4 µM]	4.3%	22.1	11.9

3 compounds from above, sorted by number of heavy atoms, smallest number first.
Order of results – CtBP-E1A blk	Six1-Eya2 inh	gsp agonist	gsp antagonist	D2 potentiator	D2 ag
- COc1cc(C(O)c2nc3ccccc3n2C)cc(OC)c1OC (configuration not stated)
    -1.0	-1.0	-40.4%	-0.9%	-0.7	-2.4
- Cc1ccc(NC(=O)CC(NC(=O)c2ccccc2Cl)c2ccccc2)nc1 (configuration not stated)
    1.4	0.0	-0.2%	-25.9%	0.0	7.6
- COc1ccc(NC(=O)Cn2nnc(C(=O)Nc3ccc(F)c(Cl)c3)c2N)cc1
    -20.3	8.6	30.0%	6.0%	-8.2	9.7

Continued:
Order of results – CtBP-E1A blk	Six1-Eya2 inh	gsp agonist	gsp antagonist	D2 potentiator	D2 ag
- C#CCOCCOCCOCCNc1nc(N2CCOCC2)nc(N2CCN(C(=O)CCCCCCCCCCNC(=O)[C@@H](CCSC)n3cc(CCO)nn3)CC2)n1
    -24.5	-8.3	x	-11.2%	-8.6	-0.4
- COc1ccc(NC(=O)CSc2nnc(NC(=O)C3CCC3)s2)c(OC)c1
    1.6	8.4	19.1%	-0.6%	2.5	4.5
- CCc1c(C)nc(SCC(=O)N2CCCCC2)[nH]c1=O
    x	19.9	u	1.4%	0.0	-1.3
- CC1(C)C2CCC(CN)C1C2 (configuration not stated)
    -12.9	3.3	13.0%	x	-0.6	-4.8
- CS(=O)(=O)c1ccc(-c2csc(C(O)c3cccc(Cl)c3)n2)cc1 (configuration not stated)
    4.3	-7.1	x	x	5.2	-0.6
- O=C(CCCCCn1c(=S)[nH]c2cc3c(cc2c1=O)OCO3)N1CCN(C(=O)c2ccco2)CC1
    -3.1	-1.6	19.3%	21.3%	-1.0	-3.3
- COc1ccc(-c2nnc(Nc3ccc(CC(N)=O)cc3)c3ccccc23)cc1
    3.0	0.0	-31.4%[inhibitor]	-16.1%	-21.4	-1.9
- CC(C)OP(=O)(OC(C)C)C(Nc1ccccc1)c1ccc2c(c1)OCO2 (configuration not stated)
    5.2	-4.5	-12.1%[15.4 µM]	3.4%	0.6	4.1
- CCC(C)N1CC23C=CC(O2)C(C(=O)OCc2ccccc2)C3C1=O (configuration not stated)
    1.0	-1.3	-23.1%	6.3%	10.8	-1.6
- COc1cc(C=O)cc(Br)c1OCC(N)=O
    3.4	9.7	32.7%[15.4 µM]	1.7%	-8.9	-5.9
- COc1ccc(OC)c(S(=O)(=O)Nc2ccc3[nH]c(=O)[nH]c3c2)c1
    8.9	2.2	-4.2%	11.2%	1.1	4.3
- CCOc1ccc2oc(C(=O)Nc3ccc4c(c3)OCO4)c(C)c2c1
    -12.8	-9.7	-8.5%[15.4 µM]	2.0%	-3.8	-0.3
- COc1ccc(NC(=O)C2(C)CCN2CCc2ccccc2)cc1OC (configuration not stated)
    -5.1	-7.4	x	x	1.4	2.6
- COc1ccc(OCC(O)CNC(C)c2ccccc2)cc1 (configuration not stated)
    x	3.2	12.9%	-4.6%	-5.4	-0.7
- CCOC(=O)c1cc2c(=O)n3cccc(C)c3nc2n(Cc2ccco2)c1=NC(=O)c1ccccc1
    12.7&7.9	7.5&-1.8	5.3%&31.8%	u	-13.0&-11.6	1.9&-3.5
- O=C(O)CCC(=O)c1ccc2c(c1)OCCO2
    0.8	-1.1	5.9%	-3.8%	-8.2	-1.6
- COc1cc(NC(=S)N2CCN(c3ccccn3)CC2)cc(OC)c1OC
    -3.0	-11.9	19.3%	1.6%	-3.7	0.7
- CS/C(=N\S(=O)(=O)c1cccs1)Nc1cccc(Cl)c1C
    0.0	22.2	-3.2%	-29.8%	3.8	2.0
- c1ccc(-c2csc(=Nc3cccnc3)n2CC2CCCO2)cc1 (configuration not stated)
    0.0	-19.3	2.1%	-19.3%	-17.0	-2.4
- COc1ccc(Cn2c(CO)cnc2SCC(=O)Nc2cc(C)on2)cc1
    7.0	1.1	0.8%	-5.4%	-7.0	-1.7

Further results:
SMILES | CtBP-E1A blk | Six1-Eya2 inh | gsp agonist | gsp antagonist | D2 potentiator | D2 ag
COC(=O)c1c(C(=O)c2ccc(Br)cc2)n(C)c2ccccc12 | -12.0 | 7.3 | 5.4% | 7.7% | -15.4 | -0.6
COc1ccc(CCNC(=O)C2CCN(S(=O)(=O)c3cccc4cccnc34)CC2)cc1OC | 39.7 | 8.6 | -31.3%[inhibitor] | -27.7% | 13.4 | 0.4
O=C(CCCC(=O)NC1CCCC1)NC1CCCC1 | -2.7 | 5.4 | -2.9% | 7.3% | -10.4 | -1.1
O=C(O)c1cc(Br)ccc1NS(=O)(=O)c1cccc2nsnc12 | 0.0 | 8.1 | -1.1%[15.4 µM] | -11.9% | -21.5 | -6.5
Cn1c(CNS(=O)(=O)c2ccc(Cl)cc2)cc(=O)n(C)c1=O | -9.7 | -0.1 | u | 17.1% | -9.1 | -2.1
CC(C)NC(=O)OCc1c(COC(=O)NC(C)C)c([N+](=O)[O-])n2c1CCC2 | 2.0 | -3.9 | x | x | -1.5 | 5.5
O=C(CCc1c[nH]c2ccccc12)N=Nc1c(O)[nH]c2ccccc12 | -4.6 | -9.5 | 0.2% | -7.1% | -4.9 | 2.3
COC(=O)c1nn(-c2ccccc2)c(Cl)c1/C=N/OCc1ccc(Cl)cc1Cl | 5.7 | 1.7 | 25.8% | -3.0% | -12.5 | -3.9
CC(C)Nc1nc(Nc2ccc(C(N)=O)cc2)c2sccc2n1 | u | u | x | x | -4.1 | -4.5
Cc1ccc(NC(=S)Nc2ccc3nc(-c4ccccn4)c(-c4ccccn4)nc3c2)cc1C | -0.7 | -9.8 | 27.6% | 11.4% | 21.2 | -2.6
O=C1c2ccccc2C(Nc2ccc(Cl)cn2)N1c1cccnc1 (configuration not stated) | -4.5 | 4.2 | 8.5% | -2.1% | -1.3 | -3.1
CN(CC1CCCN(CCc2ccc(Cl)cc2)C1)C(=O)c1ccoc1 (configuration not stated) | 1.8 | 0.8 | -50.5%[inhibitor] | 6.8% | -23.7 | -1.9
Cc1nn(CC(=O)N(CC(C)C)C2CCS(=O)(=O)C2)c(C)c1[N+](=O)[O-] (configuration not stated) | -1.1 | 0.8 | -2.8%[15.4 µM] | 8.8% | 2.6 | -2.0

Molecules above with a CF3 group, in the order listed:
SMILES | CtBP-E1A blk | Six1-Eya2 inh | gsp agonist | gsp antagonist | D2 potentiator | D2 ag
CC(C)(C(N)=O)N1CCN(c2ncc(C(F)(F)F)cc2Cl)CC1 | 6.7 | -0.4 | 23.0% | -7.5% | 3.9 | -2.6
COc1ccc(C(=O)NC2(C(F)(F)F)NC(=O)N(CCCc3ccccc3)C2=O)c(OC)c1OC (configuration not stated) | 0.1 | -6.1 | 13.1%[15.4 µM] | -9.0% | -10.8 | -4.1
Cc1cc(C(=O)OCC(=O)Nc2ncc(C(F)(F)F)cc2Cl)c(C)o1 | 0.7 | -0.9 | 1.8% | 4.2% | -11.0 | 1.1
COC(=O)[C@]12C(=O)NC[C@H](CN1c1ccc(C(F)(F)F)cc1)N2C | x | -7.7 | 7.3% | 14.7% | -17.3 | -0.9

Bioassay records deposited in PubChem by National Center for Advancing Translational Sciences (NCATS).
